# Mtb growth – Mycobacterium tuberculosis H37Rv growth inhibition, cell based, confirmatory dose response (AID 1949). inhibition, % at 10 µg/mL, or IC50 in µg/mL where a hit was titrated. most inactive calls were filed without a number and no value below 0 was filed. 100,000 compounds, 1.6% hits;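 active means confirmed in a dose series; inconclusive means about 50% or more but not retested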;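 further: bacteria grown 7 days with compound before Alamar blue readout; 0% = untreated bacteria and 100% = reference antibiotic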
# * marks the source's active call; other numbers are inactive results; i = inactive; ? = inconclusive. A portion of the library. The share of hits here may be higher or lower than overall.
SMILES,Mtb growth
O=C(Nc1cc([N+](=O)[O-])ccc1O)c1cccc(F)c1,2%
Cc1cccc(Cn2c(CO)nc3ccccc32)c1,5%
CC(C)(C)c1cc(C(=O)NCCN2CCCC2)cc(C(C)(C)C)c1,5%
COc1ccc(-c2nc3cc(C(C)C)ccc3o2)cc1NC(=O)c1ccccc1F,48%
CCOc1ccccc1N(CC(=O)NC1CCCC1)S(C)(=O)=O,i
Cc1cc(I)ccc1NC(=O)CSc1ccc(Cl)cc1,25%
Cc1ccc2nc(NC(=O)c3cncc(Br)c3)sc2c1,i
CCc1ccccc1NC(=O)CN(C)S(=O)(=O)c1ccc(OC)c(C)c1,i
COc1ccccc1NC(=O)C1=C(C)Nc2ncnn2C1c1cccc(F)c1 (centres undefined),i
Cn1c(=O)c2c([nH]c(=S)n2Cc2c(F)cccc2Cl)n(C)c1=O,0%
Cc1c(CNC(=O)c2cc(-c3ccc4c(c3)OCO4)nc3ccccc23)cnn1C,i
O=C(NCc1cccc(CNC(=O)NC2CCCCC2)c1)NC1CCCCC1,i
Nc1nc(/C=C/c2ccc(F)cc2)nc(-c2ccccc2O)n1,6%
Cn1cc(CNC(=O)c2ccc([N+](=O)[O-])cc2Cl)cn1,i
CCCN1C2=C(C(=O)CC(C)(C)C2)C(c2ccc(F)cc2)C2=C1c1ccccc1C2=O (centres undefined),i
COc1ccccc1NC(=O)COc1ccc(CO)cc1Cl,2%
Cc1c(Cl)cccc1N(CC(=O)Nc1ccc(F)cc1F)S(C)(=O)=O,i
Cc1cc2nc(Nc3nc4c(c(=O)[nH]3)CCCC4)nc(C)c2cc1C,6%
Cc1cccc(C)c1NC(=O)C1CC=CCC1C(=O)O (centres undefined),i
CCOC(=O)N1CCN(C(=O)c2ccc3nc(C)sc3c2)CC1,i
O=C(O)c1cccc(NC(=S)NC(=O)c2cccc(Br)c2)c1,i
O=C(CN1c2cccc3cccc(c23)S1(=O)=O)N1CCOCC1,i
CN(CC(=O)Nc1ccc(C(N)=O)cc1)S(=O)(=O)c1ccc(Br)cc1,i
Cc1cc(-c2nn3c(-c4ccccc4)nnc3s2)c2ccccc2n1,i

# In the list so far, 11 have sulfur:
SMILES,Mtb growth
CCOc1ccccc1N(CC(=O)NC1CCCC1)S(C)(=O)=O,i
Cc1cc(I)ccc1NC(=O)CSc1ccc(Cl)cc1,25%
Cc1ccc2nc(NC(=O)c3cncc(Br)c3)sc2c1,i
CCc1ccccc1NC(=O)CN(C)S(=O)(=O)c1ccc(OC)c(C)c1,i
Cn1c(=O)c2c([nH]c(=S)n2Cc2c(F)cccc2Cl)n(C)c1=O,0%
Cc1c(Cl)cccc1N(CC(=O)Nc1ccc(F)cc1F)S(C)(=O)=O,i
CCOC(=O)N1CCN(C(=O)c2ccc3nc(C)sc3c2)CC1,i
O=C(O)c1cccc(NC(=S)NC(=O)c2cccc(Br)c2)c1,i
O=C(CN1c2cccc3cccc(c23)S1(=O)=O)N1CCOCC1,i
CN(CC(=O)Nc1ccc(C(N)=O)cc1)S(=O)(=O)c1ccc(Br)cc1,i
Cc1cc(-c2nn3c(-c4ccccc4)nnc3s2)c2ccccc2n1,i

# (listing goes on)
SMILES,Mtb growth
COc1cc(OC)c(-c2nc3cnccc3n2C)cc1OC,4%
CC(C)(C)C(=O)N(Cc1ccccc1)Cc1ccccc1,i
C[C@@H](NC(=O)C1CCNCC1)c1ccccc1,i
CCc1ccc(N(CC(=O)NCCC2=CCCCC2)S(C)(=O)=O)cc1,i
Cc1cccc(S(=O)(=O)N2CCN(c3ccccc3)CC2)c1,3%
CC(=O)Nc1cccc(NC(=O)c2ccc(C)cc2)c1,i
COc1ccc(NC(=O)CSC2=C(C#N)C(c3ccccc3F)CC(=O)N2)cc1 (centres undefined),i
Cc1csc(NC(=O)c2ccc3c(c2)OCO3)n1,i
O=C(Nc1sc2c(c1C(=O)N1CCCCC1)CCCCC2)c1cccs1,4%
COC(=O)c1c(NC(=O)c2cc(OC)c(OC)c(OC)c2Br)sc2c1CCC2,i
CCn1c(SCC(=O)Nc2ccc(C(=O)OC)cc2)nnc1-c1ccc(Br)cc1,9%
COc1cccc(OC)c1C(=O)NC(=S)Nc1cc(C(F)(F)F)ccc1Cl,i
O=C1CC(NNc2ccccc2)C(=O)N1c1ccc(N2CCCCC2)cc1 (centres undefined),i
CCc1cccc(C)c1NC(=O)CN(Cc1cccc(C)c1)S(=O)(=O)c1ccc(C)cc1,i
CSc1nc2ccc(Br)cc2[nH]1,1%
CCC(C)NC(=O)c1ccccc1NC(=O)c1ccc(N(C)S(=O)(=O)c2ccccc2)cc1 (centres undefined),i
Cc1ccc(CC(=O)Nc2nc3c(s2)CCCC3)cc1,44%
O=[N+]([O-])c1ccc2c(c1)OC1(CCCC1)O2,i
CCOc1cc(C(=S)N2CCCC2)ccc1OC(=O)Cc1ccc(F)cc1,i
CCCCSc1nnc(-c2ccc(NC(=O)CC)cc2)n1C,i
CCN(CC)c1ccc(-n2nc3cc(C)c(NC(=O)c4ccccc4Br)cc3n2)cc1,5%
COC(=O)Nc1nnc(CC(=O)Nc2ccccc2C)s1,i
CCOC(=O)N1CCN(c2c(F)cc3[nH]c(=S)[nH]c3c2Br)CC1,4%
COc1ccc(/C=C/c2ccc3cccc(O)c3n2)cc1O,?
Cc1c(NC(=S)NC(=O)c2ccccc2[N+](=O)[O-])cccc1C(=O)O,i
O=C(CN1CCCCC1)Nc1sc2c(c1C(=O)Nc1ccc(Br)cc1)CCC2,i
O=C(Nc1nc2c(Cl)c(Cl)ccc2s1)c1ccco1,4.8µg/mL*
CCOC(=O)C1=C(C)NC(=O)NC1c1cn(-c2ccccc2)nc1-c1ccc(Cl)cc1 (centres undefined),27%
COc1ccc(CCNC(=O)C(C)Sc2nnnn2-c2cccc3ccccc23)cc1OC (centres undefined),i
O=C(NC1CCCC1)c1ccc(Br)s1,i
NC(=O)c1ccccc1NC(=O)C1CCCCC1,i
CC(=O)NC1C(OC2CCCCC2)OC(COC(C)=O)C(OC(C)=O)C1OC(C)=O (centres undefined),i
COc1cc(Br)cc2cc(C(=O)NCCC3=CCCCC3)c(=O)oc12,i
Cc1ccc(Cl)cc1N1CCN(C(=O)CN(c2ccc3c(c2)OCO3)S(C)(=O)=O)CC1,i
Cc1ccc(NC(=O)CCCC(=O)Nc2ccc(C)c(C)c2)cc1C,i
C=CCOc1c(Br)cc(CNc2ccc(C(=O)O)cc2)cc1OC,9%
Cc1csc(NC(=O)CSc2ccc(Br)cc2)n1,5.6µg/mL*
CC(=O)OC(COc1cccc(C)c1)Cn1cnc2ccccc21 (centres undefined),6%
Cc1ccc(CNC(=O)CSc2nc3ccccc3[nH]2)cc1,5%
CCOC(=O)c1c(C)oc2ccc(O)c(CN3CCCCC3)c12,i
CCc1ccc(NC(=O)CN(c2ccc(F)cc2)S(=O)(=O)c2ccc3c(c2)OCCO3)cc1,i
CC(C)NC(=O)c1ccccc1NC(=O)c1ccc(Cl)c(Cl)c1,i
O=C(Nc1ccc2c(c1)OCCO2)c1ccc(CN2CCOCC2)cc1,i
CCOc1ccc2nc(NC(=O)CSc3nnnn3-c3ccccc3)sc2c1,0%
N#Cc1ccccc1COc1ccc(C(=S)N2CCOCC2)cc1Cl,0%
O=C(Cn1nnc(-c2ccccc2)n1)Nc1ccc(F)cc1F,2%
Nc1c(C(=O)NCCc2ccccc2F)sc2nc(-c3cccs3)ccc12,i
COc1ccc(Cl)cc1NC(=O)CN(c1cccc(C)c1C)S(=O)(=O)c1ccc(C)cc1,i
CCc1nc2ccccc2n1CC(O)COc1ccc([N+](=O)[O-])cc1 (centres undefined),6%
Nc1cc(N)nc(SCC(=O)Nc2cccc(Cl)c2)n1,i
Cc1cc2nc3c4cccc5cccc(c(=O)n3c2cc1C)c54,1%
O=C(CN1C(=O)c2ccccc2C1=O)NCc1ccc2c(c1)OCO2,i
O=C(c1ccc(Cl)s1)N1CCN(c2ccccc2)CC1,i
COc1cccc(COc2ccc3c(C)cc(=O)oc3c2)c1,7%
N#CCc1ccc(NC(=O)COc2ccc([N+](=O)[O-])cc2)cc1,?
O=C(NCc1nnc(SCc2ccccc2Cl)n1-c1ccccc1)c1ccccc1F,i
CCc1cccc(CC)c1NC(=O)COc1ccc(-c2ccccc2)cc1,7%
O=C(Nc1ccccc1N1CCOCC1)c1ccc(-c2ccccc2)cc1,i
O=C(O)c1ccc(NC(=S)NC(=O)c2ccccc2Br)cc1Cl,5%
O=C1CC(Sc2ccccc2)C(=O)N1c1ccc(Cc2ccc(N3C(=O)CC(Sc4ccccc4)C3=O)cc2)cc1 (centres undefined),i

# Next part
SMILES,Mtb growth
O=C(Nc1cccnc1)c1ccccc1-c1ccccc1,0%
O=C(COc1ccc(S(=O)(=O)NCCc2ccccc2)cc1)N1CCCCCC1,5%
COc1ccc(/C=N/N=C2/NC(=O)C(Cc3ccc(Cl)c(Cl)c3)S2)cc1OC (centres undefined),40%
O=C(NC(c1ccccc1)c1ccccc1)C12CC3CC(CC(C3)C1)C2,i
O=C(c1ccccc1F)N1CCN(c2ccccc2F)CC1,i
Cc1cc2oc(C(=O)Nc3ccc(OC(F)F)cc3)c(C)c2cc1C,0%
Cc1c(CC(=O)O)c(=O)oc2c(C)c(OCc3ccc(F)cc3F)ccc12,i
Nc1ccccc1C(=O)OCc1ccc([N+](=O)[O-])cc1,i
O=C(O)c1ccc(SC(C(=O)O)c2ccccc2)cc1 (centres undefined),i
COc1ccccc1CNc1cccc(C)n1,2%
COc1ccc2c(c1)nc(C)n2Cc1ccccc1,i
CC(=O)C1=C(C)NC(SCC(=O)Nc2nc3ccccc3s2)=C(C#N)C1c1ccccc1[N+](=O)[O-] (centres undefined),24%

# Three entries out of the list, ordered by heavy-atom count, descending:
SMILES,Mtb growth
Cc1cc2oc(C(=O)Nc3ccc(OC(F)F)cc3)c(C)c2cc1C,0%
O=C(Nc1cccnc1)c1ccccc1-c1ccccc1,0%
COc1ccc2c(c1)nc(C)n2Cc1ccccc1,i

# (continued)
SMILES,Mtb growth
CCOc1ccc(NC(=O)C(C)N2C(=O)c3ccccc3C2=O)cc1 (centres undefined),i
Cc1cc(OCC(=O)NN2CCOCC2)ccc1[N+](=O)[O-],i
Fc1ccccc1OCCN1CCNCC1,i
c1ccc(COc2ccc(OCCn3cncn3)cc2)cc1,i
O=C(NC(=S)Nc1ccccc1C(=O)Nc1ccccc1)c1ccco1,i
CCOC(=O)N1CCN(C(=O)Nc2ccc3nc(C)sc3c2)CC1,i
Cc1cc(OC(=O)c2ccccc2)cc(=O)o1,1%
CCOc1ccccc1NC(=O)c1cc(-c2ccc(OC)c(OC)c2)nc2ccccc12,21%
COC(=O)c1cc(NC(=O)CC23CC4CC(CC(C4)C2)C3)cc(C(=O)OC)c1,36%
CCOC(=O)c1ccc(NC(=O)CSc2nnc(COc3ccccc3)n2-c2ccccc2)cc1,i
COc1cc([N+](=O)[O-])ccc1NC(=S)Nc1c(C)n(C)n(-c2ccccc2)c1=O,i
CC(C)(C)c1ccc(C2CC(=O)c3cnc(N)nc3C2)cc1 (centres undefined),i
CCOC(=O)c1ccc(N2C(=O)CC(Cc3ccc(Cl)cc3)C2=O)cc1 (centres undefined),i
c1ccc2[nH]c(-c3cscn3)nc2c1,2%
Cc1ccc(C(C)C)cc1OCCOCCNCCN(C)C,12%
Cc1cc(Cl)c(S(=O)(=O)N2CCSCC2)cc1OCC(=O)NC1CCCCC1,i
CNC(=S)N1N=C(c2ccc(C)cc2)CC1c1cc(OC)ccc1OC (centres undefined),5%
COCCNC(=S)Nc1ccc(OC(F)(F)F)cc1,i
CC(C)C(=O)Nc1cccc(C(=O)Nc2nnc(C3CCCCC3)s2)c1,i
CCn1c(SCC(=O)N2c3ccccc3Sc3ccccc32)nnc1-c1ccc(OC)cc1,1%
CCCCC(=O)Nc1cccc(NC(=S)NC(=O)c2ccccc2[N+](=O)[O-])c1,3%
O=C(Nc1ccn(Cc2ccc(Cl)cc2)n1)c1cccnc1,i
CCCCC(=O)Nc1ccc(NC(=O)c2cccc(Cl)c2Cl)cc1OC,i
COc1ccc([N+](=O)[O-])cc1NC(=O)CN(c1ccccc1Br)S(C)(=O)=O,i
Cc1ccc(C)c(C(=O)Nc2cccc3ccccc23)c1,i
O=C(NCc1ccc(Cl)cc1Cl)C1CCN(S(=O)(=O)c2ccc(F)cc2)CC1,2%
CCOc1ccc(NC(=O)C(C)(C)CC)cc1,i
O=C1Nc2ccc(S(=O)(=O)N(Cc3ccccc3)Cc3ccccc3)c3cccc1c23,i
Cc1ccc(-c2nnc(SC3=CS(=O)(=O)c4ccccc43)o2)cc1,i
CC1=CC(c2ccccc2)n2nc(NC(=O)CCCC(=O)O)nc2N1 (centres undefined),i
CCOC(=O)c1sc(NC(=O)COc2cc(C)ccc2C(C)C)nc1C,i
O=C(c1cccc(F)c1)N(Cc1ccccc1)c1ccccn1,1%
Nc1nc2ccccc2n1CCN1CCCC1,12%
O=C(NC12CC3CC(CC(C3)C1)C2)c1cc(F)c(F)cc1Cl,3%
CCC(C)NC(=O)c1ccc(Cl)c(Cl)c1 (centres undefined),i
CCN(CC)C(=O)c1sc(NC(C)=O)c(C(=O)OC)c1C,i
CCn1c2ccccc2c2nnc(SCC(=O)Nc3sc4c(c3C(N)=O)CCCC4)nc21,i
CCOC(=O)c1cnc(Nc2nc3ccccc3o2)nc1-c1ccccc1,i
Cc1cc2nn(-c3ccccc3)nc2cc1NC(=O)c1cccc([N+](=O)[O-])c1,i
CN1C(=O)C(CC(=O)Nc2ccc3c(c2)Cc2ccccc2-3)N(C)C1=O (centres undefined),i
CCN1CCN(C(=O)CN(c2ccc(OC)c(OC)c2)S(C)(=O)=O)CC1,i
O=C(Nc1ccc(Cl)cc1Cl)C1CCN(C(=O)c2ccccc2)CC1,i
CCc1cc2c3c(c(=O)oc2cc1O)CCCC3,i
COc1ccccc1N(CC(=O)Nc1ccccc1-c1ccccc1)S(C)(=O)=O,i

# Assay outcomes deposited in PubChem by Southern Research Institute.
